From PubChem
GIV-Gai inh: inhibitors of GIV GBA-motif binding to rat Galpha-i3; Galpha-i3/FITC-GIV peptide fluorescence polarization, 90 min; active compounds read low; scaled: aluminum fluoride 0%, vehicle 100%; percent of control (FP), % (concentration not given with the values); 0.42% of 210,000 active; AID 1224905;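 active means replicate mean at 85% of control or lower, very high polarization wells dropped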;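 further: wells of about 15 µL received 100 nL stock; the first replicate is given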
Target sequence (P08753 whole entry, looked up): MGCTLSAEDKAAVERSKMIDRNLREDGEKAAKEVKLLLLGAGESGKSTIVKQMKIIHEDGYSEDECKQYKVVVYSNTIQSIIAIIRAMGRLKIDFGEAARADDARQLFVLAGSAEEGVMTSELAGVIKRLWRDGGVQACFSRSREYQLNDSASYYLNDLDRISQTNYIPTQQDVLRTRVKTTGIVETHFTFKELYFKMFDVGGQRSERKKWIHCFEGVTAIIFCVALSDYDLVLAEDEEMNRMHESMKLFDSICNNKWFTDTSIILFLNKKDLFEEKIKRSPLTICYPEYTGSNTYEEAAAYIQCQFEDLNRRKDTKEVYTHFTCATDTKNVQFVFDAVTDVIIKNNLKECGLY
An asterisk follows results filed as active.

A first look, 2 compounds:
SMILES	GIV-Gai inh
Cn1nc(C(=O)N2CCCC(C(=O)Nc3ccccc3)C2)c2c1CCN(C(=O)CCc1ccccc1)C2 (configuration not stated)	105
CC1CCN(S(=O)(=O)c2cn(Cc3noc(-c4ccc(Br)cc4)n3)cn2)CC1	99

The whole of this part, previewed entries included:
SMILES	GIV-Gai inh
Cn1nc(C(=O)N2CCCC(C(=O)Nc3ccccc3)C2)c2c1CCN(C(=O)CCc1ccccc1)C2 (configuration not stated)	105
CC1CCN(S(=O)(=O)c2cn(Cc3noc(-c4ccc(Br)cc4)n3)cn2)CC1	99
Cc1cccc(NC(=O)c2sc3nc(-c4cccs4)cc(C(F)(F)F)c3c2N)n1	114
O=C(CNS(=O)(=O)c1cc(-c2noc(C3CCC3)n2)cs1)Nc1ccc2c(c1)OCCO2	102
COCC(=O)Nc1ccc(-c2nc3ccccc3s2)c(C)c1	104
COc1cc(C(c2c(C)[nH]n(-c3ccccc3)c2=O)c2c(C)[nH]n(-c3ccccc3)c2=O)ccc1OCc1ccccc1	108
C=CCn1c(SCC(=O)Nc2ccccc2Cl)nc2cc(C(=O)NCc3ccco3)ccc2c1=O	114
COC(=O)Cc1nc(NCCc2ccc(OC)c(OC)c2)c2c(C)c(C)sc2n1	102
O=C(NC1CCCCC1)C1CCCN(C(=O)c2ccc(NS(=O)(=O)c3ccc(F)cc3)cc2)C1 (configuration not stated)	101
COc1ccc(C)cc1NS(=O)(=O)c1cc(-c2cc(C(F)(F)F)on2)sc1C	103
CCn1nc(C)n2cc(S(=O)(=O)NCc3ccc(C)o3)cc2c1=O	102
O=C(CC1CCCCC1)Nc1c2c(nn1-c1cccc(Cl)c1)CSC2	95
CNC(=O)N1CCNC(=O)C1(C)C	98
CCOc1cc(C(c2c(C)n(C)n(-c3ccccc3)c2=O)c2c(C)n(C)n(-c3ccccc3)c2=O)ccc1O	111
COCCCNC(=O)N1CCC2(C1)C(=O)N(C)c1ccccc12 (configuration not stated)	105
COc1ccc(C(=O)Oc2ccccc2NC2=NS(=O)(=O)c3ccccc32)c(OC)c1	104
Cc1cccc(N2C(=O)C3C(c4ccccc4)OC4(C(=O)c5ccccc5C4=O)C3C2=O)c1C (configuration not stated)	120
O=C1/C(=C/c2ccc(-c3cc(Cl)ccc3Cl)o2)C=C(c2ccccc2)N1c1ccccc1Cl	107
Cc1ccc(-n2c(C)c(CC(=O)O)c3c2CC(C)(C)CC3=O)cc1Cl	108
O=C(CCCN1C(=O)C2C3C=CC(C3)C2C1=O)N1CCN(c2ccc(F)cc2)CC1 (configuration not stated)	107
Cc1[nH]c(-c2nnc(C3CC3)o2)c(C)c1S(=O)(=O)N1CCC(C)CC1	104
CC(C)CC(C(=O)Nc1ncn[nH]1)N1C(=O)c2ccccc2C1=O (configuration not stated)	109
O=C(Nc1ccc(-c2nnc(-c3ccccc3)o2)cc1)Nc1ccc(F)cc1F	106
CCOc1cc(/C=C2/SC(=Nc3ccccc3C)NC2=O)ccc1O	116
COc1cccc(-n2c(-c3ccco3)n[nH]c2=S)c1	109
COc1ccccc1N(CCOC(=O)CN1C(=O)c2ccccc2C1=O)C1=NS(=O)(=O)c2ccccc21	109
O=C(NCc1ccc(Cl)cc1)C1CCN(c2ccc3cc(S(=O)(=O)N4CCCCC4)ccc3n2)CC1	99
CC(C)(C)n1nc2c(c1NC(=O)c1ccc(S(=O)(=O)N3CCOCC3)cc1)CS(=O)(=O)C2	116
CC(C)NC(=O)N(C)CCc1noc(C(=O)NCc2ccc3c(c2)OCO3)n1	103
Cc1cc2c(cc1C)-c1nc3ccccc3cc1C2	110
COc1ccc(-c2nc3ccccc3c3nnc(SCC(=O)NC4CC4)n23)cc1	99
CC(C)(C)c1ccc2c(c1)C1c3ccc(C(C)(C)C)cc3C2C2C(=O)N(c3ccc(Oc4ccc(Br)cc4)cc3)C(=O)C12 (configuration not stated)	101
CCc1ccc(CNS(=O)(=O)c2cc(-c3cnn4c(C)cc(C)nc34)ccc2C)cc1	100
Cn1c(N2CCCC(C(=O)N3CCN(c4ccc(Cl)cc4)CC3)C2)cc(=O)n(C)c1=O (configuration not stated)	107
Cc1c(Cl)cccc1NC(=O)c1cc(S(=O)(=O)N2CCN(c3ccccc3F)CC2)ccc1F	109
CC1CCN(C(=O)c2cc(NS(=O)(=O)c3ccc4c(c3)CCCC4)cnc2N2CCNCC2)CC1	100
c1ccc(CN2CCn3c4c(c5ccccc53)CCCC42)cc1 (configuration not stated)	111
CC1(C)CC(=O)C2=C(C1)Nc1ccccc1N(C(=O)CCC(=O)O)C2c1ccccc1 (configuration not stated)	101
CCOC(=O)CC(=O)CSc1nc2c(sc(=S)n2-c2ccccc2C)c2nc3ccccc3n12	107
CCCC(=O)c1cn(CC(=O)NC(C)c2ccc3c(c2)OCCCO3)c2ccccc12 (configuration not stated)	100
O=C(CN1CCC(O)CC1)N1c2ccccc2Sc2ccc(C(F)(F)F)cc21	108
Cn1c2[n+](c3ccccc3c1=O)Cc1ccccc1-2	106
Cn1nc(CO)c2c1CCN(Cc1ccc(Br)s1)C2	100
O=C1CC(c2ccccc2F)c2cc(Br)c3ccccc3c2N1 (configuration not stated)	108
COC(=O)C1=C(C(=O)OC)SC(=C2C(=S)C(C)(C)N(C(=O)c3cccc(F)c3)c3cc(C)c(C)cc32)S1	103
CCC(C)C(=O)N1c2cc(C)c(C)cc2-c2c(ssc2=S)C1(C)C (configuration not stated)	106
CCc1ccc(N2C(=O)N(CC(=O)c3ccc(OC)cc3)c3ccccc3S2(=O)=O)cc1	100
CC(C)c1ccc(-c2noc(N3CCC(C(=O)NC4CCCCC4)CC3)n2)cc1	106

Reprinted at random: 5 records from the list, in no set order.
SMILES	GIV-Gai inh
CCc1ccc(N2C(=O)N(CC(=O)c3ccc(OC)cc3)c3ccccc3S2(=O)=O)cc1	100
O=C1CC(c2ccccc2F)c2cc(Br)c3ccccc3c2N1 (configuration not stated)	108
Cn1nc(CO)c2c1CCN(Cc1ccc(Br)s1)C2	100
O=C(CN1CCC(O)CC1)N1c2ccccc2Sc2ccc(C(F)(F)F)cc21	108
COC(=O)C1=C(C(=O)OC)SC(=C2C(=S)C(C)(C)N(C(=O)c3cccc(F)c3)c3cc(C)c(C)cc32)S1	103

Next part
SMILES	GIV-Gai inh
CC(C)n1cnnc1C1CCCN(C(=O)c2n[nH]c3c2CCCC3)C1 (configuration not stated)	107
CCOc1ccc(C2Oc3c(OCC)cccc3C3CC(c4ccco4)=NN32)cc1 (configuration not stated)	108
CC(=O)N1CC2(C(C)C)CN(C(C)=O)CC(C(C)C)(C1)C2=O	113
O=C1N=C(N2CCN(C(c3ccccc3)c3ccccc3)CC2)S/C1=C\c1ccccc1	109
Cc1ccc(CNC(=O)C2CCCN(C(=O)C3Sc4ccccc4NC3=O)C2)cc1 (configuration not stated)	104
O=c1c2cc3c(cc2nc(SCc2nc(-c4ccc(F)cc4)no2)n1Cc1ccncc1)OCO3	102
Clc1ccc(-c2nc(NCCN3CCOCC3)c3ccccc3n2)cc1	120
CCCn1c(CCc2ccccc2NS(=O)(=O)c2cn(C)c(C)n2)nc2ccccc21	102
Cn1c(=O)c2c(nc(N3CCN(Cc4ccccc4)CC3)n2CC(=O)c2ccccc2)n(C)c1=O	111
COc1ccc(C2=N/C(=C/c3ccc(OC)c(OC)c3)C(=O)O2)cc1Br	112
O=C(CSc1nnc2c(n1)[nH]c1ccccc12)CSc1nnc2c(n1)[nH]c1ccccc12	105
CCc1ccc(C2CC(=O)Nc3c2c(C)nn3-c2nc3ccc(C)cc3s2)cc1 (configuration not stated)	98
O=C(NCc1nc2cccnc2n1Cc1ccc(F)cc1)C1CC1	110
Cc1cc(SCC(=O)N2CCCC2)n2ncc(-c3ccc(F)cc3)c2n1	98
CN(c1ccc(Br)cc1)S(=O)(=O)c1ccc2[nH]cc(C(=O)NCC3CCCO3)c(=O)c2c1 (configuration not stated)	99
COc1cccc2c1OC1(CCC(C)CC1)N1N=C(c3ccco3)CC21 (configuration not stated)	126
COc1cccc(Cn2nnc3cc(C(=O)N4CCN(c5ccccn5)CC4)ccc32)c1	107
CCc1onc(C)c1C1CCCN1Cc1ccc(Br)cc1 (configuration not stated)	115
O=C(CSc1nccnc1N1CCN(c2ccccc2)CC1)N1CCN(c2ccccc2)CC1	104
CCOc1ccc(NC(=O)CSc2nc3ccccc3c(=O)n2NC(=O)CCc2c[nH]c3ccccc23)cc1	108
O=C(O)c1csc2nc[nH]c(=O)c12	102
O=C1C2C3c4ccccc4C(c4ccccc43)C2C(=O)N1Cc1ccccc1 (configuration not stated)	110
O=C(NC1CCCc2ccccc21)c1ccc(-c2cc(N3CCCC3)ncn2)cc1 (configuration not stated)	162
O=C(C1CCN(c2cncnc2N2CCCCC2)CC1)N1CCC2(CC1)OCCO2	100
c1ccc(Nc2nc(-c3ccccc3)[n+](-c3ccccc3)s2)cc1	114
CCOc1cccc(-c2noc(-c3nn(-c4ccccc4)ccc3=O)n2)c1	100
CC1(C)N(O)C(=O)CN1C(=O)c1ccccc1	106
COc1cccc2c1N(C(=O)COc1ccccc1)C(C)(C)c1ssc(=S)c1-2	113
CC1(C)CC(=O)C2=C(C1)c1c(ccc3ccccc13)NC2c1cc(Br)cc(Br)c1O (configuration not stated)	115
Cc1ccc(-c2csc(Nc3ccc(Br)cn3)n2)cc1	101
O=C(CSc1ncccc1C(=O)NCc1ccc(Cl)c(Cl)c1)NCc1ccccc1	107
O=C(Cn1cnc2ccccc2c1=O)OCCN(C1=NS(=O)(=O)c2ccccc21)c1ccccc1Cl	104
Cc1[nH]n(-c2ccccc2)c(=O)c1C(c1cc(Br)ccc1O)c1c(C)[nH]n(-c2ccccc2)c1=O	106
O=S(=O)(c1cc(F)ccc1F)N1CCN(c2ncnc3c2nnn3-c2cccc(F)c2)CC1	103
O=C(Nc1ccccc1)N(Cc1ccccc1)c1nc2ccccc2s1	109
Cc1cc(-n2c(=S)sc3c(=O)n(-c4ccccc4F)c(=S)[nH]c32)ccc1Cl	108
Cn1c(SCC(=O)Nc2ccccc2)nc2cc(-c3ccccc3)sc2c1=O	94
COc1ccc(C(=O)Oc2ccc3c(=O)c(Oc4ccccc4Br)coc3c2)cc1	99
CC(=O)C1=C(C)NC(SCC(=O)c2ccc3ccccc3c2)=C(C#N)C1c1sccc1C (configuration not stated)	109
CCN(CC)C(=O)CSc1nc2c(sc(=S)n2CCc2ccccc2)c(=O)n1Cc1ccco1	109
Clc1cccc2nnc(-c3cccc(I)c3)n12	109
CCOC(=O)c1c(CNc2ccccc2)n(-c2ccccc2)c2cc(Br)c(OC)cc12	104
O=S(=O)(c1ccccc1)c1nc(COc2ccc(Cl)cc2Cl)oc1N1CCOCC1	111
CCn1c(=O)n(CC(=O)NCCc2ccc(OC)c(OC)c2)c(=O)c2ccccc21	105
COC(=O)c1ccc2c(=O)n(-c3cc(F)cc(F)c3)c(N3CCSC3)nc2c1	101
CCc1nnc(-c2coc(S(=O)(=O)N3CCN(CC)CC3)c2)o1	106
CCCCN1CCCCC1C(=O)Nc1c(C)ccc(S(=O)(=O)N2CCCCC2)c1C (configuration not stated)	107
COC(=O)c1ccc(NC(=O)CSc2nc3ccc(NC(=O)CSc4ccccn4)cc3s2)cc1	102
CC(=O)C1=C(C)NC(SCc2ccccc2C)=C(C#N)C1c1ccccc1[N+](=O)[O-] (configuration not stated)	110
O=C(Nc1ccc2c(c1)C(c1ccccc1)=Nc1ccc(NC(=O)C34CC5CC(CC(C5)C3)C4)cc1C(c1ccccc1)=N2)C12CC3CC(CC(C3)C1)C2	103
O=C(Nc1c2c(nn1-c1ccc([N+](=O)[O-])cc1)CS(=O)(=O)C2)C1(c2ccc(Cl)cc2)CCCC1	102
O=S(=O)(Nc1ccc(-c2nnc(-c3ccccc3)o2)cc1)c1ccc(Br)cc1	101
O=C1/C(=C/c2ccc([N+](=O)[O-])cc2)C=C(c2ccccc2)N1c1ccc(Cl)c(Cl)c1	111
CCOc1ccc(-c2nn3c(=O)c(NC(=O)c4ccc(OC)c(OC)c4)cnc3o2)cc1	106
CC(C)(C)NS(=O)(=O)c1ccc2c(c1)C(C)(C)CN2CC(=O)N1CCCC1	106
COc1cc(C2Nc3ccc4ccccc4c3C3=C2C(=O)CC(C)(C)C3)cc(Br)c1O (configuration not stated)	106
CCN(CC)c1ncnc2c1cnn2CC(=O)N1CCC2(CC1)OCCO2	102
COc1ccc(-c2csc(=Nc3ccccc3)n2CCc2ccccc2)cc1F	111
COCCCOc1nc(N2CCOCC2)nc(N2CCOCC2)n1	108
CCn1nc2ccc(S(=O)(=O)N3CCSCC3)cn2c1=O	97

(more compounds)
SMILES	GIV-Gai inh
CC1=NN(c2ccc(C(=O)OC(C)C)cc2)C(=O)/C1=C\c1cccn1-c1ccc(S(N)(=O)=O)cc1	97
COC(=O)C1C(c2c(C)cc(C)cc2C)C(C(=O)OC)S(=O)(=O)CS1(=O)=O (configuration not stated)	119
CCOc1cc(C2C(C#N)=C(N)Oc3n[nH]c(-c4ccc(OC)cc4)c32)ccc1OC(=O)N1CCOCC1 (configuration not stated)	108
CCOc1cc(C2C3=C(CC(C)(C)CC3=O)NC3=C2C(=O)c2ccccc23)ccc1O (configuration not stated)	110
Cc1ccc2c(N)c(C(=O)c3ccc(C(=O)c4sc5nc(C)ccc5c4N)cc3)sc2n1	93
CCCCN(CC)c1ccc(NC(C)=O)cc1C(=O)O	105
CC(Sc1nnc2c3ccccc3nc(-c3ccccc3)n12)C(=O)NC1CC1 (configuration not stated)	102
CCc1ccc(-c2[nH]ncc2CN2CCCC2c2cc(C(C)C)on2)cc1 (configuration not stated)	113
CCS(=O)(=O)c1ccccc1C(=O)Nc1sc2c(c1C(N)=O)CCC2	101
Cn1cnc2cc(-c3noc(-c4ccc(Cl)c(Cl)c4)n3)ccc21	103
O=C(NCC(=O)N1CCCc2ccccc21)c1n[nH]c2c1CCCC2	96

Copied from the entries so far for reference:
SMILES	GIV-Gai inh
CC1=NN(c2ccc(C(=O)OC(C)C)cc2)C(=O)/C1=C\c1cccn1-c1ccc(S(N)(=O)=O)cc1	97
COC(=O)C1C(c2c(C)cc(C)cc2C)C(C(=O)OC)S(=O)(=O)CS1(=O)=O (configuration not stated)	119
CCOc1cc(C2C(C#N)=C(N)Oc3n[nH]c(-c4ccc(OC)cc4)c32)ccc1OC(=O)N1CCOCC1 (configuration not stated)	108
CCOc1cc(C2C3=C(CC(C)(C)CC3=O)NC3=C2C(=O)c2ccccc23)ccc1O (configuration not stated)	110
Cc1ccc2c(N)c(C(=O)c3ccc(C(=O)c4sc5nc(C)ccc5c4N)cc3)sc2n1	93

An excerpt, so the mix of outcomes need not match the whole.
